# Compound activity (PubChem)
# TRPML1 inh: qHTS for Inhibitors of the Human Mucolipin Transient Receptor Potential 1 (TRPML1); Mucolipin-1 (Homo sapiens), Q9GZU1; TRPML1-inducible cells, Ca2+ dye fluorescence, FDSS; hits give low values; inhibition of EC80 agonist-evoked calcium signal; activity change, negative = inhibition, % (no concentration beside the values); 390,000 tested, 0.02% active; AID 624415, 2012; in the data active means activity change below about -50%; inconclusive means about -30% to -50%; inactive means above about -30%;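 also: stimulus is agonist 54-4 at its EC80 concentration; % is scaled to controls: 0 for no effect and ±100 for the full control effect; compound concentration not given in the record; the text of the record puts the active cut at -80%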
#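 Tet-induced TRPML1-DL cells loaded with Ca8 no-wash calcium dye were read kinetically on FDSS. Compound addition was followed by EC80 agonist 54-4 (4 uM final); inhibition was read over 110 s.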
# D2 agonist: Beta-Arrestin HTS for Positive Allosteric Modulators of the Human D2 Dopamine Receptor: Agonists | activation, % (no concentration beside the values) | 360,000 tested, 0.084% active | DiscoveRx PathHunter D2 beta-arrestin, luminescence, 90 min; 100% = 57 uM dopamine signal; in the data active = activation above about 40%; inconclusive = about 15% to 40%; inactive = below about 15%; also: compound concentration not given in the record; the text of the record calls up to 30% inactive
#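 DiscoveRx PathHunter D2 beta-arrestin cells (2,100/well) attached overnight, then compound-stimulated 90 min at 37 C in HBSS/10 mM HEPES/0.1% Tween-20 buffer; beta-galactosidase complementation read by luminescence after 1 h at ambient temperature. Dopamine 57 uM final (EC100) as control.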
# PINK1 modulator: A Quantitative High throughput Screen to Identify Chemical Modulators of PINK1 Expression; AID 624263, 2012; Potency, µM (titrated, usually from 76.6 µM), without a hit: top-dose activation (PINK1 increase), most hits filed as activators; 410,000 tested, 0.2% active; PINK1 immunofluorescence, high-content cytometry, 24 h; active = well fitted activation curve with a large enough effect; inconclusive = small, poorly fitted or top-dose-only effect; inactive = flat fitted curve, though single readings scatter; cell line not stated here;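 also: potency is read from the fitted curve at half-maximal effect; % of control where 0% means no effect; nearly all actives have a fitted effect of over 65% in size; a mitochondrial uncoupler was the plate control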
#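 Fluorescence from anti-PINK1 antibody, together with nuclear and cell stains, was scanned on a laser-scanning cytometer. Before staining, stable-line cells were incubated 24 hours with compounds at 5 concentrations; primary antibody 12 h at 10 degrees C.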
# Six1-Eya2 inh: qHTS Assay for Inhibitors of the Six1/Eya2 Interaction | Homeobox protein SIX1 (Homo sapiens) + Protein phosphatase EYA2 (Homo sapiens), … | AlphaScreen GST-Six1/His-Eya2 binding, biochemical; hits give low values; control for the full effect not named in the record | activity change, % (test concentration not listed) | 360,000 tested, 0.56% active | AID 651725, 2012; in the data active = activity change below about -65%; inconclusive = about -30% to -65%; inactive = above about -30%; also: % is scaled to controls: 0 for no effect and ±100 for the full control effect; compound concentration not given in the record
# Target sequence (O00167 whole entry, looked up): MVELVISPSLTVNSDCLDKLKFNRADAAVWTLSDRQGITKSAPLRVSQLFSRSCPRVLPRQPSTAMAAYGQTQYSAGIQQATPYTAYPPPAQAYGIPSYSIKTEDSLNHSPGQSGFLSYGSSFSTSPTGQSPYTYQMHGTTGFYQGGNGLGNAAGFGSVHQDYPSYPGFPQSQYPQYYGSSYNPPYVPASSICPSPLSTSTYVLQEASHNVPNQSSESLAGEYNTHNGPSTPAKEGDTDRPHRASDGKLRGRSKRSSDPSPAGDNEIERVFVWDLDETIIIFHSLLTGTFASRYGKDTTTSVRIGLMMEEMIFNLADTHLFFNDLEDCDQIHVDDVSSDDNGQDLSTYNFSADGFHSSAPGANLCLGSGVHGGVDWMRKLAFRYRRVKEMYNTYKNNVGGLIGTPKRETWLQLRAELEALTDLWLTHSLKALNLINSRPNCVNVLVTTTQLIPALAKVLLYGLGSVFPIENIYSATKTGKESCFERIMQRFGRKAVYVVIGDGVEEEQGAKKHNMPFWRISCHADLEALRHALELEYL
# Target sequence (Q15475 whole entry, looked up): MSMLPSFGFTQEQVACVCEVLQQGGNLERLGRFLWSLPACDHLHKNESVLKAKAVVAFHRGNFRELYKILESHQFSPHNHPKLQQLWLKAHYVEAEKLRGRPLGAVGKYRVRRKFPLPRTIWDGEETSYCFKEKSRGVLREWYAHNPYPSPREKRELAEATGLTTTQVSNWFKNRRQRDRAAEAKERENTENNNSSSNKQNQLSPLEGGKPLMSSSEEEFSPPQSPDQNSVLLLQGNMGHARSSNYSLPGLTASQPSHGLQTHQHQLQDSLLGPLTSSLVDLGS
#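 Compounds are tested against tagged Six1 and Eya2 proteins bridged by glutathione donor and nickel acceptor beads; after a one-hour incubation at 37 °C without light, AlphaScreen emission is recorded.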
# TRPML1 agonist: qHTS for Agonists of the Human Mucolipin Transient Receptor Potential 1 (TRPML1); Mucolipin-1 (Homo sapiens), Q9GZU1; TRPML1-expressing cells, Ca2+ dye fluorescence, FDSS; host cell line not named in the record; reference of the full effect not given here; activation, % (no concentration beside the values); 410,000 tested, 0.12% active; AID 624414, 2012; in the data active = activation above about 50%; inconclusive = about 30% to 50%; inactive = below about 30%; also: 0% is about no effect; the text of the record puts the active cut at 80%
#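 TRPML1-DL cells, Tet-induced overnight (~16 h, 37 degrees C), loaded 45-90 min at room temperature with Ca8 no-wash calcium dye plus quencher. FDSS fluorescence: 10 s baseline, compound pin-transfer, 110 s agonist read, then EC80 54-4 (4uM final) and 110 s antagonist read.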
# CtBP-E1A blk: qHTS Assay for Inhibitors of the CtBP/E1A Interaction. CtBP / adenovirus E1A interaction (AlphaScreen). AlphaScreen GST-E1A/His-CtBP binding, 1536-well; hits give low values; control for the full effect not named in the record. activity change, % (no concentration beside the values). 340,000 tested, 0.49% active. AID 651724, 2012; in the data active means activity change below about -65%; inconclusive means about -30% to -65%; inactive means above about -30%; also: % is scaled to controls: 0 for no effect and ±100 for the full control effect; compound concentration not given in the record
#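 Protein mix (5X: 125 nM each GST-E1A, His-CtBP) was incubated with pinned compound 2 h at 37 deg C in dark, in 50 mM Tris pH 8.0 buffer with 300 mM NaCl. Glutathione donor and nickel acceptor beads followed; AlphaScreen signal read after 1 h.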
# * = called active by the depositor; ? = inconclusive; / = not tested or not shown; & = joins results of further samples; [ ] = dose if it differs, or a comment.
SMILES,TRPML1 inh,D2 agonist,PINK1 modulator,Six1-Eya2 inh,TRPML1 agonist,CtBP-E1A blk
COc1ccc(-c2nnc(SC3CCOC3=O)n2C2CCCCC2)cc1OC (stereo not drawn),-21,-0.4,24%[38.3 µM],4,1.0,8
CCCOc1ccc(N2C(=O)CC(N(CCc3ccc(OC)cc3)C(=O)/C=C/C(=O)O)C2=O)cc1 (stereo not drawn),-23,-20,-2.0%,-1,-0.4,5
C=CCn1c(Cc2cccs2)nnc1SCC(=O)Nc1cccc(OC)c1,-17,2.3,-1.4%,-3,2.1,-22
CCOc1ccc(N2CC(C(=O)Nc3ncccc3C)CC2=O)cc1 (stereo not drawn),8,0.0,0.5%,2,-0.7,-1
O=S1(=O)N=C(Nc2ccc(N3CCOCC3)c(Cl)c2)c2ccccc21,-12,2.0,2.8%,-2,-0.1,0
COC(=O)c1ccccc1-c1ccc(C=O)o1,-4,-3.4,1.0%,3,0.2,0
CSc1nc(C(=O)N2CCc3c([nH]c4ccccc34)C2c2ccccn2)cs1 (stereo not drawn),9,-2.0,-2.1%,-13,0.2,-10
Cc1ccc(CN2CCN(/N=C/C=C/c3ccccc3[N+](=O)[O-])CC2)cc1,-11,-2.7,-1.3%,?,0.8,-76*
COc1ccc(N2C(=O)CC(N3CCCCC3)C2=O)cc1 (stereo not drawn),-13,1.3,0.0%,4,2.1,/
C#Cc1ccc([C@H]2C=C(C(=O)OCC=C)O[C@@H](OCc3ccc(CO)cc3)C2)cc1,12,-3.9,1.5%,-5,0.1,0
Cc1nc(-c2ccc3c(c2)OCO3)cs1,-1,0.5,-1.7%,5,4.0,6
COc1ccc(-c2cc3cc(F)ccc3cn2)cc1,33,4.7,-1.7%,7,0.7,-1
Cc1ccc(N(CC(=O)NC2CCCC2)C(=O)Cn2nnc(-c3ccccc3F)n2)cc1,-11,-0.9,1.2%,-2,0.4,1
Cc1ccccc1-n1c(SC(C)C(=O)NCC2CCCO2)nnc1-c1ccncc1 (stereo not drawn),18,-2.6,2.9%,5,2.0,-8
COc1cccc(-n2c(Cc3cc(=O)[nH]c(=O)[nH]3)nnc2SC(C)C)c1,-2,-7.1,2.0%,-1,-0.4,5
COc1ccc(C(CNC(=O)Nc2cccc(C)c2)N2CCN(C)CC2)cc1 (stereo not drawn),-6,-3.8,4.3%,3,-0.1,1
COc1ccc(NC(=O)C(C)N2c3cccc4cccc(c34)S2(=O)=O)c(OC)c1 (stereo not drawn),9,-2.3,2.9%,-8,0.3,10
CCC(C(=O)Nc1cc(F)ccc1F)n1nc(C)c2c(C)n(-c3ccc(C)cc3)nc2c1=O (stereo not drawn),7&79,8.4,-0.9%&0.2%,-4,-1.7&2.8,-1
CC(C)(CNC(=O)c1cc2c(s1)CCCC2)N1CCOCC1,3,-1.4,-1.9%,5,-0.2,-20
O=C(CNc1ccccc1)N/N=C/c1c[nH]c2ccccc12,-6,-5.3,7.1%,5,0.4,/
CC1CCN(CCCNS(=O)(=O)c2ccc3c(c2)CCN3C(=O)C2CC2)CC1,-6,-0.5,1.7%,2,0.3,/
CCCCCOc1ccc(C(=O)N(Cc2ccccc2)C2CCS(=O)(=O)C2)cc1 (stereo not drawn),3,/,0.8%,/,3.4,/
COc1ccc(NC(=O)CCSc2cc(C)c3ccccc3n2)cc1,1,1.7,0.7%,1,2.8,0
Cc1[nH]c2ccc(C(=O)NCCc3ccccc3Cl)cc2c1C,0,/,0.4%,/,0.9,/
Cc1nn(-c2ccccc2)c(Cl)c1/C=N/NC(=O)c1[nH]ncc1Br,-1,3.3,-0.8%,-3,1.8,/
Cc1cc(C=O)c(C)n1-c1cc(C(=O)O)cc(C(=O)O)c1,-7,2.5,-0.1%,?,-0.3,2
COCCNC(=O)CN1C(=O)NC2(CCCCCC2)C1=O,9,-3.4,-1.5%,9,0.7,6
OC1(c2ccc(OC(F)F)cc2)CSC(=Nc2cccnc2)N1Cc1ccco1 (stereo not drawn),-9,5.5,-1.0%,-18,1.3,0
C=CCOc1c2ccc(C(=O)NCc3ccc(OC)cc3)cc2nn1C,-19,-5.6,-1.1%,1,0.3,-4
N#Cc1c(-c2ccc(Cl)cc2Cl)nc2n(c1=O)CCS2,-6,-0.5,-0.7%,3,-0.5,0
CCOc1cc2c(cc1C(C)(C)C)NC(=O)CS2,5,2.0,5.1%,-12,3.0,-1
Cc1cccc(-n2ncc3c2CCCC3NC(=O)CN2CCOC2=O)c1C (stereo not drawn),-8,0.8,-1.1%,5,-0.1,-1
COc1ccc(OC)c(C(=O)c2coc3ccc(O)c(CN4CCOCC4)c23)c1,5,-2.1,-15%[38.3 µM],-5,-0.9,8
COC(=O)CN1C(=O)[C@H]2[C@@H](c3ccc(C)o3)N3C(=O)CN(CC4CC4)C(=O)[C@@]3(Cc3ccccc3)[C@H]2C1=O,-14,-2.4,-0.3%,7,-0.3,-1
C/C(=N\NC(N)=S)c1cccnc1,-2,3.1,0.3%,-2,0.8,0
CCOC(=O)c1sc(N(C)C(C)=O)nc1C,-1,0.7,-0.5%,9,0.4,4
CN(C)C(=O)c1ccc(-c2nnc(OCc3nc4ccccc4n3C)c3ccccc23)cc1,/,-4.1,1.4%,3,/,4
COCCCNC(=O)c1ccc(Cn2c(=O)c3ccccc3n(CC(=O)NCCc3ccc(OC)c(OC)c3)c2=O)cc1,2,-2.3,3.9%,-8,-0.3,-12
COc1ccc(C(=O)CCNc2ccc(F)cc2)cc1,-9,-3.6,-0.9%,3,-0.5,10
C/C(CC(=O)NCc1ccco1)=N\NC(=O)c1ccc(Cl)cc1Cl,0,3.2,1.2%,-11,0.1,0
C/C(=N\NC(=O)c1ccc(=O)[nH]n1)c1cccnc1,-7,1.8,4.4%,0,-0.1,-22
O=C(COc1ccc(F)cc1)N(Cc1ccc(Cl)cc1)C1CCS(=O)(=O)C1 (stereo not drawn),3,-1.1,-1.8%,2,1.2,8
COCCNC(=O)CN1C(=O)c2cccnc2Sc2ccccc21,3,/,-1.0%,/,1.0,/
Cn1c(COc2ccccc2)nnc1SCc1cc(=O)[nH]c2ccccc12,17,1.0,0.8%,-1,0.9,1
COc1cc2[nH]c(=O)n(CCC(=O)N3CCc4ccccc4C3)c(=O)c2cc1OC,1,0.4,-1.3%,3,3.7,2

# Whole records, looked up by structure. Values in the order: TRPML1 inh | D2 agonist | PINK1 modulator | Six1-Eya2 inh | TRPML1 agonist | CtBP-E1A blk
# CN(C)C(=O)c1ccc(-c2nnc(OCc3nc4ccccc4n3C)c3ccccc23)cc1 across the screens: / | -4.1 | 1.4% | 3 | / | 4
# O=C(COc1ccc(F)cc1)N(Cc1ccc(Cl)cc1)C1CCS(=O)(=O)C1 (stereo not drawn) across the screens: 3 | -1.1 | -1.8% | 2 | 1.2 | 8
# C/C(=N\NC(N)=S)c1cccnc1 across the screens: -2 | 3.1 | 0.3% | -2 | 0.8 | 0

# (more compounds)
SMILES,TRPML1 inh,D2 agonist,PINK1 modulator,Six1-Eya2 inh,TRPML1 agonist,CtBP-E1A blk
CCN(CC)C(=O)CN(C#N)c1nc(OC)nc(N(C)C)n1,2,0.4,-0.9%,6,0.9,11
CCn1cc(C(=O)NCCc2ccc(OC)c(OC)c2)c(=O)c2cc(S(=O)(=O)N3CCC(C)CC3)ccc21,19,/,2.4%,/,-0.2,/
CN(C)c1ccc(C2OC(=O)C3(CCCC3)C(=O)C2(C)C)cc1 (stereo not drawn),-2,-1.7,8.9%[38.3 µM],-5,-0.6,-19
Cc1ccc(NC(=O)c2cccc(S(C)(=O)=O)c2)cc1,-6,-2.4,0.2%,-3,0.7,/
C=CCN1C(=O)C2(OCCO2)c2cc(C)ccc21,17,-0.6,4.2%,7,-0.2,3
O=C(NCc1ccc2c(c1)OCO2)c1cccc(F)c1,19,2.1,0.5%,-2,-0.9,0
Cc1ccc(C)c(NC(=S)N2CCC(NC(=O)c3ccco3)CC2)c1,10,-7.2,-0.7%,4,0.2,1
COc1ccc(C2C(=O)N(C3CCCCC3)CC(=O)N2CCc2ccc(C)cc2)cc1OC (stereo not drawn),-12,/,4.2%,/,1.0,/
COC(=O)C1=C(C)N=C2SC(C#N)=C(N)N2C1c1ccc(OCc2ccccc2)cc1 (stereo not drawn),5,-3.1,-0.4%,-7,0.3,8
CCN(CC)c1ccc(NC(=O)c2cccc(F)c2)c(C)c1,-3,-3.6,3.8%,-16,-0.2,-13
COc1cccc(NC(=O)CCC(=O)N2CC(C)Oc3ccc(C)cc32)c1 (stereo not drawn),0,0.2,2.0%,-5,0.4,0
O=C(OCn1nnc2ccccc2c1=O)c1ccc(S(=O)(=O)N2CCOCC2)cc1,?,-1.7,-0.2%,-5,1.3,-6
C=CCn1c(SCC(=O)NCc2ccco2)nc2ccccc2c1=O,-12,-2.1,2.7%,2,2.2,-9
CC1CC(C)CN(C(CCc2ccccc2)C(=O)NC2CCCCC2)C1 (stereo not drawn),/,-2.0,3.2%,3,-0.3,1
CC(=O)Nc1nc(-c2ccc3c(c2)CCN3C(=O)C2CC2)c(C)s1,4,12,-1.0%,-5,1.5,-13

# Exported as tab-separated lines: three of the compounds above
SMILES	TRPML1 inh	D2 agonist	PINK1 modulator	Six1-Eya2 inh	TRPML1 agonist	CtBP-E1A blk
OC1(c2ccc(OC(F)F)cc2)CSC(=Nc2cccnc2)N1Cc1ccco1 (stereo not drawn)	-9	5.5	-1.0%	-18	1.3	0
C=CCOc1c2ccc(C(=O)NCc3ccc(OC)cc3)cc2nn1C	-19	-5.6	-1.1%	1	0.3	-4
N#Cc1c(-c2ccc(Cl)cc2Cl)nc2n(c1=O)CCS2	-6	-0.5	-0.7%	3	-0.5	0

# The listing continues.
SMILES,TRPML1 inh,D2 agonist,PINK1 modulator,Six1-Eya2 inh,TRPML1 agonist,CtBP-E1A blk
COc1cccc(-c2cnc3c(NC(C)=O)cc(-c4cc(F)ccc4OC)cn23)c1,/,2.1,5.2%,-8,0.3,-21
CCOC(=O)COc1ccc(CC)cc1C(=O)c1ccn2nc(-c3ccc(C)cc3)cc2n1,-7,/,3.4%,/,1.7,/
CC(CN1CCOCC1)OC(=O)c1ccc(Cl)cc1Cl (stereo not drawn),4,-2.4,4.8%,3,-0.4,/
COc1ccc(NS(=O)(=O)c2cc(N=Nc3c(O)[nH]c(=O)[nH]c3=O)ccc2Cl)cc1,1,-4.4,2.6%,-15,-0.3,-18
